Choline anaer gr = growth inhibitors of anaerobic choline-fed gram-negatives, minimal medium, absorbance; Gram-negative bacterium anaerobic choline minimal medium; stronger effect = lower value; many inactives read as strong as hits in the columns shown; calls only; hit rate 0.2% among 55,000; AID 1963822, 2024;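 active = growth z-score on choline under -2 at 7 or 20 h with little or no fall on glycerol, limits in tiers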;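 note: stock transfer was 300 nL into about 50 µL; the organism is E. coli; final concentration not given here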
Choline anaer gr early = also measured in Choline anaer gr; calls as there; z-score; measured here: choline growth z-score, timepoint 1;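 score of optical density at 7 h as mean of two plates; lower means less growth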
Numbers without * were called inactive; i = inactive; & = joins results of further samples. A portion of the library (hit frequency here may not be typical).

SMILES	Choline anaer gr	Choline anaer gr early
Cc1nn(-c2ccccc2)c(-n2cccc2)c1CNC(=O)Nc1ccccc1	i	-0.41
COCCNC(=O)c1nc[nH]c1C(=O)NCc1ccccc1	i	-0.12
Cc1ccn2c(=O)c(C(=O)NCC3CCCO3)c(O)nc2c1 (configuration not stated)	i	0.4
O=c1onc2cnc3ccccc3n12	i	-0.32&-2.16
Cc1ccc2cc(-c3noc(CCC(=O)N4CCCC4)n3)c(=O)[nH]c2c1	i	0.02
O=C(Nc1nc2c(s1)CN(S(=O)(=O)c1ccccc1)CC2)C1COc2ccccc2O1 (configuration not stated)	i	-0.09
Cc1nn(-c2nc3ccccc3o2)c2c1C(c1ccc(F)cc1)CC(=O)N2 (configuration not stated)	i	0.22
COC(=O)/C=C/c1ccc(C(=O)NCC(=O)N[C@@H](CCC(=O)OC)C(=O)N[C@@H](CC(C)C)C(N)=O)cc1	i	-0.62
Cc1ccc(Cn2c(=O)oc3ccc(C(=O)NC4CCN(Cc5ccccc5)CC4)cc32)cc1	i	0.09
Cc1cc(C)cc(Nc2c3c(nc4nncn24)CCC3)c1	i	-0.57
Cc1cccc(C)c1NS(=O)(=O)c1cc(-c2cc(C(F)(F)F)on2)sc1C	i	0.55
CC1=C(C(=O)N2CCN(c3ccc(F)cc3)CC2)C2(CCCCC2)OC1=O	i	0.59
CCC(C)(C)NC(=O)c1ccc(-c2cc(N3CCCC3)ncn2)cc1	i	0.16
CN(C)c1ccc(NC(=O)CSc2nc(-c3ccccc3)c3cc(F)ccc3n2)cc1	i	-0.03
Cc1cc(C)cc(NC(=O)C2CCN(S(=O)(=O)c3ccc4c(c3)C(C)(C)C(=O)N4C)CC2)c1	i	-0.11
Cc1ccc(CNC2=NCCNC23CCN(S(=O)(=O)c2ccc(C)cc2)CC3)cc1	i	-0.41
Cc1sc(-c2noc(C3CC3)n2)cc1S(=O)(=O)NCC(=O)N1CCOCC1	i	-0.38
Cc1ccc(-c2noc(-c3cn(Cc4ccc(NS(=O)(=O)c5ccc(C(C)(C)C)cc5)cc4)cn3)n2)cc1	i	0.76
COCCOC(=O)C1=C(C)NC(C)=C(C(=O)OC(C)C)C1c1cccc([N+](=O)[O-])c1 (configuration not stated)	i	0.97&0.92&0.63&0.76&0.22
CCOCCCNC(=O)c1cc(-c2cnn(-c3ccc(CC)cc3)c2C)nc2ccccc12	i	1.87
Cc1cccc(-c2nccc(N3CCC(C(=O)NC(C)(C)C)CC3)n2)c1	i	-1.23
O=c1cc[nH]c(=S)[nH]1	i	-2.99
Cc1ccc(NC(=O)C2Sc3nnc(-c4ccccc4)n3NC23CCCCC3)cc1C (configuration not stated)	i	-0.57
Cc1ccc(C(=O)CN(c2nc3nc(C)c(Cl)c(C)n3n2)S(=O)(=O)c2ccccc2)cc1	i	-1.87
Cc1ccc(-c2noc(-c3ccc(=O)n(CC(=O)NCc4ccc5c(c4)OCO5)c3)n2)cc1	i	0.25
O=C(NCc1ccc(-c2noc(C3CCCO3)n2)s1)C1CC1 (configuration not stated)	i	-0.52
Cc1ccc(Cl)cc1NC(=O)CN1CCN(Cc2ccccc2)C(=O)C1=O	i	0.1
Cc1c(C2=CCN(S(=O)(=O)c3ccc(F)cc3)CC2)c2ccccc2n1Cc1ccccc1	i	0.32
O=C(CCn1c(=O)c2ccccc2n2c(SCC(=O)NC3CCCC3)nnc12)NC1CCCC1	i	0.06
O=C(CCc1nnc(C(=O)Nc2cccc(Cl)c2)s1)NCc1ccc(F)cc1	i	0.63

The results go on:
SMILES	Choline anaer gr	Choline anaer gr early
O=C(Nc1ccc(Cl)cc1)N1CCC2(CC1)Nc1ccccc1-n1cccc12	i	-0.75
CC1=NS(=O)(=O)c2cccnc2N1c1ccccc1	i	-0.36
Cc1cccc(CN2C(=O)c3ccc(-c4ccccc4)n3CC2(C)C(=O)NC2CCCC2)c1 (configuration not stated)	i	-0.51
CC[C@H](C)C(=O)O[C@H]1C[C@H](O)C=C2C=C[C@H](C)[C@H](CC[C@@H](O)C[C@@H](O)CC(=O)O)[C@H]21	i	0.39&0.17
O=C1CCC(=O)N1c1nc2n(n1)C(c1ccc(Cl)cc1)C=C(c1ccccc1)N2 (configuration not stated)	i	-0.63
NC(C/C=C/CC(N)C(=O)O)C(=O)O (configuration not stated)	i	0.62
O=C(O)C1CCN(c2ncccn2)CC1	i	0.23
CCOC(=O)c1ccccc1NC(=O)c1sc(NC(=O)c2ccc(OC)c(OC)c2)c(C(=O)OCC)c1C	i	-0.74
COc1ccc(N2C(=O)CCS2(=O)=O)cc1S(=O)(=O)N(C)c1ccccc1	i	-0.97
NC(=O)c1c(NC(=O)CSc2nnc3ccc4ccccc4n23)sc2c1CCCC2	i	0.33
Cc1nn(-c2cccc(F)c2)c2sc(C(=O)Oc3cccc(F)c3)cc12	i	-0.35
c1ncc(CC2CCNCC2)[nH]1	i	0.62
CCN(CC)c1cc(C)nc2nc(CN3CCCC(C)C3)nn12 (configuration not stated)	i	1.41
COC(=O)c1c(-c2cc(OC)c(OC)c(OC)c2)c2ccnc(OCc3ncccn3)c2c(=O)n1Cc1ccnc(C)c1	i	-0.21
Cc1ccccc1-c1nc(CSc2nc(-c3ccccc3)cc(=O)[nH]2)c(C)o1	i	1.42
O=S(=O)(c1ccc(-c2cc(C(F)(F)F)on2)o1)N1CCCCC1	i	1.24
Cc1ccc(-c2cc(C(=O)N3CCN(C)CC3)[nH]n2)cc1C	i	0.52
Cc1nc2cccnc2n1-c1cc(C(=O)NC(C)C)ccc1Cl	i	0.19
CCc1ccc(NC(=O)N2CCN(Cc3ccc4nccnc4c3)CC2)cc1	i	-0.06
Cc1c(C)n(-c2ccc(F)cc2)c2ncnc(Nc3ccc(F)cc3Cl)c12	i	0.19
CCOC(=O)c1ccc2c(c1)N(Cc1ccccc1F)C(=O)c1ccccc1S2(=O)=O	i	1.97
Cc1cc(N2CCC(C)CC2)n2nc(-c3cccnc3)nc2n1	i	-1.07
c1cc(OC2CCNCC2)cc(-n2cnnn2)c1	i	-3.23
Cc1sc(-c2ccno2)cc1S(=O)(=O)NCc1cccs1	i	-0.2
Cc1noc2ncnc(NC3CCCC3)c12	i	0.51
Cc1ccc(S(=O)(=O)c2ccc(C(=O)N3CCN(c4ccccc4Cl)CC3)cn2)cc1C	i	1.17
O=C1c2ccccc2C(=O)C1c1ccccc1	i	0.06&-0.28
CC(C)c1nnc(NC(=O)C2c3ccccc3Oc3ccccc32)s1	i	-1.41
CC1CCCCN1S(=O)(=O)c1cc(-c2nnc(C3CCCC3)o2)co1 (configuration not stated)	i	0.49
Cc1nc(-c2cccc(C(=O)NCc3ccccc3Cl)c2)no1	i	0.21

(next part)
SMILES	Choline anaer gr	Choline anaer gr early
CCSc1nn(CC(=O)Nc2ccc(C)cc2C)c(N)c1S(=O)(=O)c1ccc(C)cc1	i	1.45
COC(=O)c1ccccc1NC(=O)c1cc2c(s1)-c1ccsc1CC2	i	0.39
Cn1nnc2c(Nc3cc(F)ccc3F)ncnc21	i	-1.2
Cc1ccc(-n2c(CN3CCN(S(=O)(=O)c4cccc5nsnc45)CC3)nc3cccnc32)cc1	i	0.04
CCc1nc(-c2ccc3c(c2)CCN3C(=O)Cc2ccc(C)cc2)no1	i	2.13
Cc1cc(C(=O)N2CCN(c3ccccc3)CC2)c2cccc(-c3ccccc3)c2n1	i	-0.12
CCOc1ccc(NS(=O)(=O)c2cc(C(=O)N3CCN(c4cccc(Cl)c4)CC3)n[nH]2)cc1	i	0.39
CC(C)OCCCn1c(=O)c2ccccc2n2c(=O)n(CC(=O)NC3CCCCC3)nc12	i	1.71
O=C(CCc1nc2sc3c(c2c(=O)[nH]1)CCCCC3)NCc1ccc2c(c1)OCO2	i	-0.21
Cc1cc(C)c2c(-n3cccc3)nn(Cc3ccc(C(=O)NCc4cccnc4)cc3)c2n1	i	0.76
Cc1ccc(CS(=O)(=O)Nc2ccc3c(c2)nc(-c2ccc(C(=O)NC(C)C)cc2)n3C)cc1	i	-0.01
Cc1ccc(NC(=O)c2cc3sc4ccccc4c3s2)cc1C	i	1.32
CCOCc1nc(-c2cccc(-c3ccn[nH]3)c2)no1	i	-0.42
CC1(C(=O)NCc2ccc3c(c2)OCO3)CCN(C(=O)NCc2ccc(F)cc2)CC1	i	-0.52
Cc1cc(Nc2ccccc2F)nc(C)n1	i	0.85
Cc1ccc(C(=O)N2CCN(c3cc(=O)n4nc(-c5ccc(C)cc5)sc4n3)CC2)cc1	i	-0.17
O=C(NCc1ccc(F)cc1)N1CCCC1c1cccs1 (configuration not stated)	i	0.5
COc1ccc(-c2cc(C(F)(F)F)nc(SCCC(=O)N3CCC(C)CC3)n2)cc1	i	-1.05
CCOC(=O)C1CCCN(C(=O)C2CCN(c3nn4c(=O)c5c(nc4s3)CCCC5)CC2)C1 (configuration not stated)	i	-0.31
Cc1oc(C2CCN(C(=O)NC3CCCCC3)CC2)nc1C(=O)N1CCSCC1	i	-0.22
COc1ccc(OCC(=O)N2CCN(C(=O)c3cc4ccccc4[nH]3)CC2)cc1	i	0.91
O=C(c1ccc2ccnc(N3CCN(c4ccccc4)CC3)c2c1)N1CCOCC1	i	-0.71
CCOc1c(NCCC2=CCCCC2)c(=O)c1=O	i	-0.83
CC(=O)Nc1c(-c2ccccc2)c(C)nn1-c1ccc(C(=O)NCc2nc3ccc(C)cc3[nH]2)cc1	i	2.24
Cn1c(=O)[nH]c2cc(-c3noc(-c4ccc(Br)cc4)n3)ccc21	i	-0.25
Cn1c(CNS(=O)(=O)c2cccc3nsnc23)nc2cccnc21	i	-0.62
Cc1ccc(NC(=O)N2CCN(c3cc(=O)n4nc(-c5ccccc5C)sc4n3)CC2)cc1	i	1.37
COc1cc(NC(=O)c2ccc(Oc3ccnc(-c4ccc(F)cc4)n3)cc2)cc(OC)c1	i	-0.23
COc1ccc(C2C3=C(CC(C)(C)CC3=O)Nc3onc(C)c32)cc1 (configuration not stated)	i	0.02
COc1ccc(CNC(=O)CN2CCN(Cc3ccccc3)C(=O)C2=O)cc1	i	-1.01

Going on with the list.
SMILES	Choline anaer gr	Choline anaer gr early
Cc1cc(N2CCN(C/C=C/c3ccccc3)CC2)n2ncc(-c3ccc(F)cc3)c2n1	i	0
C[C@@H](NCCc1ccc(O)cc1)[C@@H](O)c1ccc(O)cc1	i	-0.4
CCS(=O)(=O)c1ccc(-c2ccc(NC(=O)c3ccc(C)cc3)cc2)nn1	i	0.88
Cc1ccc(-c2noc(-c3ccccc3NC(=O)C3CC(=O)N(c4ccccc4C)C3)n2)cc1 (configuration not stated)	i	0.14
CCCCOC(=O)c1ccc(O)cc1	i	-0.27
Cc1ccc(N2C(=O)N(Cc3ccc(C(C)(C)C)cc3)c3ccccc3S2(=O)=O)cc1F	i	0.27
CC(C)c1nnc(-c2ccc(S(=O)(=O)N3CCCCC3)o2)o1	i	-1.5
CCC(=O)Nc1nc2ccc(NS(=O)(=O)c3ccc(NC(C)=O)cc3)cc2s1	i	-1.62
CCN1CN=C(Nc2nc(C)c3cc(OC)ccc3n2)NC1	i	0.45
Cc1cccc(CSc2nc3c(-c4ccccc4)c[nH]c3c(=O)[nH]2)c1	i	0.29
c1ccc(-c2noc(-c3ccc(N4CCC(N5CCCCC5)CC4)nn3)n2)cc1	i	-0.03
CC(C)(C)C(=O)Nc1ccc2nc(SCC(=O)N3CCOCC3)sc2c1	i	-0.18
O=C(Nc1ccc(Cl)cc1)C1CC(=O)N(CCc2c[nH]c3ccc(F)cc23)C1 (configuration not stated)	i	0.39
COc1ccc(-c2csc(-c3c(N)c(C(=O)c4ccc(F)cc4)n4ccccc34)n2)cc1	i	-0.67
CC(=O)N1CCCc2cc(NC(=O)c3cccc(Br)c3)ccc21	i	-1.42
Cc1ccc2c(c1)c(=O)n(CCCOC(C)C)c1nnc(SCc3ccc(Cl)cc3)n21	i	-0.53
Cc1cc(N2CCCC2)n2nc(CN3CCC(N4CCCCC4)CC3)nc2n1	i	0.14
Cc1cc(C)cc(NC(=O)Nc2ccc(CCc3nc4ccccc4[nH]3)cc2)c1	i	-0.31
Cc1nn(CCCC(=O)NCc2cccc(Cl)c2)c(=O)c2c(-n3cccc3)n(-c3ccccc3)nc12	i	-0.2
O=C(O)CCC(=O)Nc1ccc(S(=O)(=O)Nc2nccs2)cc1	i	0.48
COc1ccc(NC(=O)c2nn(C)c(C(F)(F)F)c2Cl)c(OC)c1	i	1.85
C=C1C(=CC=C2CCC[C@@]3(C)C2CCC3C(C)CCCC(C)(C)O)CC(O)CC1O (some centres not stated)	i	-1.12
COC(=O)c1ccccc1NC(=O)Cn1nnc2sc(-c3ccccc3)cc2c1=O	i	-0.15
COc1ccc(-c2cc3ncc4c(n3n2)-c2cc(Cl)ccc2OC4)cc1	i	-2.16
O=C1CC(c2nc3ccccc3n2Cc2ccc(Br)cc2)CN1Cc1ccccc1 (configuration not stated)	i	0.29

Another view of four compounds above:
Values in the order – Choline anaer gr	Choline anaer gr early
> COc1ccc(OCC(=O)N2CCN(C(=O)c3cc4ccccc4[nH]3)CC2)cc1
    i	0.91
> O=C(c1ccc2ccnc(N3CCN(c4ccccc4)CC3)c2c1)N1CCOCC1
    i	-0.71
> CCOc1c(NCCC2=CCCCC2)c(=O)c1=O
    i	-0.83
> CC(=O)Nc1c(-c2ccccc2)c(C)nn1-c1ccc(C(=O)NCc2nc3ccc(C)cc3[nH]2)cc1
    i	2.24

High-throughput results from PubChem BioAssay.
